High-throughput results: PubChem, several laboratories
eIF4H FP inh = inhibitors of RNA binding by human eIF4H. eIF4H fluorescence polarization binding assay. inhibition, % at 35 µM. hit rate 0.94% among 290,000. AID 2012;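 active = 50% or more with normal probe brightness, or confirmed in later tests; inconclusive = above 50% with abnormal brightness, or retests that disagree; inactive = below 50% or failed in later tests; about a fifth of its hits are not listed in these tables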;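 note: calls also rest on retests at 20 µM and on dose response follow-up; 0% = protein and probe with vehicle and 100% = probe without protein; strong numbers were not always called active; many hits fall short of the cut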
PABP FP inh = blocks human PABP binding to poly(A) RNA; P11940; hit rate 1% among 290,000; inhibition, % at 35 µM; fluorescence polarization;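 active = 50% or more with normal probe brightness, or confirmed in later tests; inconclusive = above 50% with abnormal brightness, or retests that disagree; inactive = below 50% or failed in later tests; about a fifth of its hits are not listed in these tables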;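 note: calls also rest on retests at 20 µM and on dose response follow-up; controls were probe without protein and protein plus probe with vehicle; some compounds called inactive have numbers as strong as hits; many hits fall short of the cut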
CSC inhib = cancer stem cell inhibition; cancer stem cell-like cells viability, luminescence; inhibition, % at 7.5 µM; hit rate 1.1% among 300,000;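 active = mean at 75% or more and at least half the replicates too; inconclusive = mean and replicates disagree; tested in HMLE shEcad cells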;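 note: 0% = median of negative and 100% = median of positive control wells; the first replicate is given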
Yeast UUG start = yeast start codon fidelity modulation | S. cerevisiae UUG-firefly luciferase reporter, luminescence/redox ratio | activity score, % at 18.7 µM | hit rate 0.13% among 350,000 | AID 602363;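 active = replicate mean at a twofold rise or more, about +100% in these data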;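 note: firefly luciferase made from a UUG start codon reports start codon fidelity; reporter light over untreated wells divided by growth signal over untreated wells; some hits fall short of that in this replicate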
MT1-MMP act inh = inhibitors of human MT1-MMP activation | HT1080 RFP-PRO-GFP cells, GFP/RFP ratio fluorescence, overnight; percent of plate control window, DMSO zero | hit rate 0.061% among 360,000 | GFP/RFP ratio change, % at 20 µM | AID 651647;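 active = GFP/RFP ratio change of at least 30% with cell ATP level not reduced by more than half and red fluorescence within 50% of control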; note: strong numbers were not always called active
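Assay system: HT1080 RFP-PRO-GFP cells | Dosing: 20 µM single dose, 1% DMSO | Incubation: Cells overnight before dosing, compound overnight, 37 °C, 5% CO2 | Evaluation: GFP/RFP fluorescence ratio | Control set: DMSO-only wells and HT1080 RFP-L50D-GFP cell wells as references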
Rce1 inhib = yeast Ras-converting enzyme inhibition; yeast membranes, quenched prenylated peptide cleavage fluorescence; calls only; AID 2563; hit rate 0.27% among 290,000;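 active = fall in fluorescence gain of 50% or more versus controls, with final raw signal at or below 3038400; inconclusive = same 50% fall but final raw signal above 3038400; inactive = fall in fluorescence gain under 50%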;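 note: plate controls were neutral control wells for no effect and wells lacking membranes for full effect; tested at 10 µM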
Target sequence (Q03530 whole entry, looked up): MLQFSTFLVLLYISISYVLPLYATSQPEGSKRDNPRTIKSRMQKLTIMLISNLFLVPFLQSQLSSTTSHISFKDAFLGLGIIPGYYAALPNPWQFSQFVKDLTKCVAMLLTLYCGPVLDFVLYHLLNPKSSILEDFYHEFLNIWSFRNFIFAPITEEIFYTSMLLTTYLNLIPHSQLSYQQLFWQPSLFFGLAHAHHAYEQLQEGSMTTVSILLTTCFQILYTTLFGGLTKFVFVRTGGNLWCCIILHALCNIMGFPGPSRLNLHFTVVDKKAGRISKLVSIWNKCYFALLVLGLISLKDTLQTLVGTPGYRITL
HIV Env fusion = blocks HIV Env-driven cell-cell fusion; inhibition, % at 12.3 µM; hit rate 1.1% among 360,000; HeLa-JRFL Env/CEM21 cell fusion, luciferase; AID 651610;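 active = mean replicate inhibition score of at least 50 and every replicate individually at or above 50; inconclusive = only one of the two criteria met; inactive = mean below 50 and not all replicates reaching 50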;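 note: 0% = plate neutral controls and 100% = maraviroc near 300 nM; one replicate is shown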
MT1-MMP act inh RFP = also measured in MT1-MMP act inh; calls as there; RFP signal change, %; measured here: RFP expression control read;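 0 = vehicle wells; hits needed this value within 50% of zero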
Starred values were filed as active, the others as inactive; i = inactive; ? = inconclusive; / = no result given.

SMILES	eIF4H FP inh	PABP FP inh	CSC inhib	Yeast UUG start	MT1-MMP act inh	MT1-MMP act inh RFP	Rce1 inhib	HIV Env fusion
Clc1ccc(Nc2nc(N3CCOCC3)nc(N3CCOCC3)n2)cc1Cl	-11	18	17	12	-2	-7	i	-12
CCOC(=O)CC(=O)CSc1ncc(C(=O)OCC)c(N)n1	6	6	-10	-13	-2	3	i	/
COc1ccc(C2c3[nH]c4ccccc4c3C[C@H]3C(=O)N(CCCO)CC(=O)N23)c(OC)c1 (some centres not stated)	-15	-4	-16	7	4	4	i	3
O=C(COc1ccc(Cl)cc1)NNC(=O)c1ccc(=O)[nH]c1	/	/	-9	0	-8	-7	/	-5
O=C(Nc1ccccc1Br)c1ccc2nccnc2c1	-2	-6	3	-10	-7	-2	i	-12
Cc1ccc2nc(SC(C)C(=O)N3CCCCC3)[nH]c2c1 (configuration not stated)	1	1	-8	-13	-2	-3	i	-18
Brc1ccc2[nH]c3c(c2c1)CCC3	-4	8	24	-20	6	6	i	-3
Cc1nn(C)c(C)c1S(=O)(=O)N(CC(=O)NCCCN1CC(C)CC(C)C1)c1ccc(C(C)C)cc1 (configuration not stated)	-2	-4	9	-2	-2	0	i	11
CC(OC(=O)Cc1ccc(Cl)cc1)C(=O)NC1CCCCC1C (configuration not stated)	/	/	/	-17	3	2	/	1
Nc1nc(-c2ccccc2)c(CC(=O)O)s1	/	/	/	-13	2	-1	/	-4
Cc1ccc(N2C(=O)[C@@H]3[C@H](C2=O)C2c4ccccc4C=CN2[C@@H]3C(=O)c2ccco2)cc1 (some centres not stated)	31	23	/	-4	-21	5	/	/
COc1cccc(NC(=O)CN(C)C(=O)c2cc(S(=O)(=O)NCc3ccccc3)ccc2C)c1	-11	2	9	6	0	-2	i	8
O=C(Nc1ccc(Cl)cc1)C1Cc2c(-c3ccccc3)ccnc2O1 (configuration not stated)	/	/	/	0	5	-4	/	0
COc1ccc(OCc2nc3ccccc3n2C(C)C)cc1	6	3	3	/	1	-7	i	-3
COC(=O)c1c(NC(=O)CN2CCN(Cc3ccc4c(c3)OCO4)CC2)sc(C)c1C	-6	-3	61	-5	3	-4	i	19
CC(=O)C(=Nc1cccc(Cl)c1)NNc1ccccc1C	/	/	26	/	0	-1	i	1
COCCNC(=O)CN(c1cc(Cl)ccc1OC)S(=O)(=O)c1ccc(C)c([N+](=O)[O-])c1	-8	5	-12	-13	2	4	i	29
Cc1cc(NC(=O)C(C)C)ncc1NC(=O)Cc1ccccc1	-2	2	17	-18	9	5	/	-8
CS(=O)(=O)NCc1ccc(C(=O)NCc2ccccc2)cc1	16	48	-9	-1	3	3	i	/
N#C/C(=N/Nc1ccccc1F)C(=N)N1CCOCC1	1	3	1	-13	4	7	i	-22
COc1ccc(CCNC(=O)Cn2nnc(-c3ccc(N(C)C)cc3)n2)cc1OC	5	6	-1	/	4	-1	i	/
COC(=O)c1nn(-c2cccc(C(F)(F)F)c2)ccc1=O	-7	4	1	-14	-1	-1	i	9
CCOC(=O)c1c(NC(=O)COc2ncnc3ccccc23)sc(C(C)=O)c1C	-9	0	7	-8	-1	-8	i	-3
COc1ccccc1CC(=O)N1CCCC1	4	-6	-8	-3	4	6	i	-15
COC(=O)CN1CCN(C(=O)c2ccc(F)cc2)c2ccccc2C1	-6	1	-9	-5	-6	-1	i	/
Oc1ccc2ccccc2c1C=Nc1ccccc1Br	-4	5	-8	-23	-3	0	i	-12
Cc1[nH]c2ccccc2c1C(=O)C(C)OC(=O)C1CCC1 (configuration not stated)	/	/	/	/	3	3	i	-97
O=c1ccnc(Nc2ccc(Cl)cc2)[nH]1	-10	0	0	-19	4	3	i	7
O=C(CN1CCOCC1)OCCCc1ccccc1	-9	3	1	1	-4	1	i	/
COc1cc(CN2CCN(c3ncccn3)CC2)cc(OC)c1	-3	18	0	-15	1	1	i	-4
Cc1ccc2nc(-c3ccccc3)c(CC3CCCCC3)n2c1	/	/	/	3	-7	1	/	-43
CCOc1ccc2nc(S(=O)(=O)NC(=O)C3(C)CCN3C(=O)c3cccc(F)c3)sc2c1 (configuration not stated)	/	/	/	-1	6	7	/	3
CC1CCN(C(=O)c2ccc(S(=O)(=O)N3CCOCC3)cc2)CC1	10	0	-7	-11	-3	-1	/	6
Cc1cc(N/N=C/c2ccc(O)cc2)c2cccc(C)c2n1	-4	19	23	-2	-1	3	i	-10
CC(=O)Nc1cccc(Nc2nc(-c3cccs3)nc3ccccc23)c1	-6	-3	34	-1	0	-3	i	-17
CN(C)c1ccc(S(=O)(=O)N(C)C)cc1NC(=O)Cc1cccc2ccccc12	10	5	7	-14	-6	-6	i	10
COc1ccc(-c2nnn(CC(=O)N(CC3CCCO3)C(C(=O)NC(C)(C)C)c3ccco3)n2)cc1OC (configuration not stated)	1	0	/	/	-2	1	i	28
Cc1cc(/C=C/C(=O)O)c(C)n1-c1ccc(Cl)cc1	10	-17	11	/	-2	5	i	3
CCC(CO)N=CC1=C(O)C(C(=O)c2ccccc2)CCC1=O (configuration not stated)	-5	6	-5	-11	-1	1	/	/
C(=N\n1cnnc1)/c1cccn1-c1ccccc1	-6	-1	2	-16	1	5	i	-4
Cc1ccccc1-c1cc(C(=O)Nc2sc(C)c(C)c2C(N)=O)c2ccccc2n1	12	18	/	/	-4	-15	i	/
O=C(Nc1cc(C(F)(F)F)ccc1Cl)C(Sc1ccccn1)c1ccccc1 (configuration not stated)	-5	9	20	/	1	2	i	25
Cc1c(C(=O)Nc2ccc(F)cc2)nnn1-c1cccc(C(F)(F)F)c1	4	-4	8	-10	2	-17	i	0
CCN(CC)C(=O)Cn1cc(C(=O)C(=O)N(C)C2CCN(C)CC2)c2ccccc21	-9	-3	-10	-11	-2	2	i	-19
Cc1ccc(Oc2cc(-n3nc(C)cc3C)ncn2)cc1	3	0	-4	-14	2	5	i	-79
CCCCCc1ccc(-c2ccc(OC)cc2)nc1	-13	6	15	-19	9	4	i	-51
COc1ccc(CCNC(=O)CSc2nc(C)cc(C)n2)cc1OC	-3	-1	-13	/	0	6	i	30
CC(c1nnc(SCC(=O)Nc2cccnc2Cl)n1-c1ccccc1)N(C)C (configuration not stated)	4	8	/	/	1	3	i	-10
O=C(O)CN1C(=O)/C(=C\c2ccc(OC(=O)c3ccco3)cc2)SC1=S	-7	-10	-6	-26	-31	21	i	19
O=C(CC1C(=O)NCCN1Cc1ccccc1)NC1CCCCCC1 (configuration not stated)	-5	-2	-4	-10	1	2	i	-2
O=C(Cn1nnc(-c2cccs2)n1)NCc1cccs1	-1	-16	-7	/	-4	3	i	-4
O=C(Nc1ccccc1)C(O)C(O)C(=O)Nc1ccccc1 (configuration not stated)	9	2	-16	2	10	4	i	/
CCN(C[C@H]1N[C@@](CC)(C(=O)OC)[C@H]2C(=O)N(Cc3ccccc3)C(=O)[C@@H]12)S(=O)(=O)c1ccc(OC(F)(F)F)cc1	/	/	/	-19	-7	-9	/	87*
CCCOc1ccccc1NC(=O)c1c(-c2ccccc2)noc1C	6	-6	/	11	-7	-13	i	65*
COc1ccc(N2CCN(C(=O)CCCn3c(=O)[nH]c4cc(Cl)ccc4c3=O)CC2)cc1	9	8	5	-2	1	-10	i	?
c1ccc(CSC2=NCCCN2)cc1	-7	5	/	/	3	6	i	-8
COc1cc(C(=O)NC(=S)NNC(=O)c2ccc3c(c2)OCO3)cc(OC)c1OC	10	10	15	-7	6	-1	i	12
C/C(O)=C(/N=O)C(=O)Nc1ccccc1	-5	-7	3	-33	3	6	i	/
O=[N+]([O-])c1ccc(CNc2ccc(F)cc2)s1	-6	9	5	-9	0	0	i	23
COc1ccccc1-c1nnc(NC(=O)c2ccc3ncsc3c2)o1	45	-4	15	/	5	5	i	-10

(more compounds)
SMILES	eIF4H FP inh	PABP FP inh	CSC inhib	Yeast UUG start	MT1-MMP act inh	MT1-MMP act inh RFP	Rce1 inhib	HIV Env fusion
O=S(=O)(Nc1ccccc1N1CCOCC1)c1ccc(Cl)s1	-5	1	/	-15	2	5	i	-26
COc1ccccc1NC(=O)COc1cc(Br)c(CNCCCN2CCOCC2)cc1OC	5	-9	-6	-10	8	6	i	-17
Nc1c(C(=O)NCc2ccco2)nnn1-c1ccccc1	1	-3	0	-16	2	5	i	-70
CCC(C)Sc1nc2c(c(=O)[nH]c(=O)n2C)n1Cc1ccc(Cl)cc1 (configuration not stated)	-11	-10	12	-5	-7	-9	i	/
CN(C)c1nc(Cl)nc(NCCOc2ccccc2)n1	-12	11	11	-6	4	3	i	-2
COC(=O)c1c(N2C(=O)[C@H]3[C@@H](C2=O)[C@]2(C(=O)Nc4ccccc42)N2CCC[C@@H]32)sc(C)c1C	-3	2	-11	/	/	/	i	/
CC(=O)c1ccc(OCCCC(=O)NCC(c2ccco2)N(C)C)cc1 (configuration not stated)	8	14	1	-6	-3	-2	i	-29
Cc1cc(N2CCN(Cc3cn(C)nc3-c3cccc(Cl)c3)CC2)cc(C)n1	4	-4	42	/	-10	-17	i	-25
CCOc1ccccc1NC(=S)NC1CCCCC1	-4	5	2	-31	-7	-4	i	4
Cc1cccc(OC(C)C(=O)N2CCCc3ccccc32)c1 (configuration not stated)	9	-4	5	/	1	0	i	7
Cc1cc(NC(=O)CCC(=O)N(CC(=O)NCC2CCCO2)c2cccc(C)c2C)no1 (configuration not stated)	-11	2	-6	-11	0	2	i	-9
CCOc1ccccc1NC(=O)COc1ccc2c(c1)OCO2	-15	-6	/	-12	1	-2	i	-9
Cc1ccc(NCCC(=O)c2cccc([N+](=O)[O-])c2)c(C)c1	2	2	7	-27	6	3	i	-65
OC(c1ccccc1)c1nc(-c2cncnc2)cs1 (configuration not stated)	/	/	/	-12	0	5	/	21
Cc1ccc(CNC(=O)c2ccc(COc3ccccc3)cc2)cc1	-9	-9	4	/	0	1	i	23
COc1cc([N+](=O)[O-])ccc1NC(=O)COC(=O)C1=NN(c2ccccc2)C(=O)CC1	/	/	-8	10	-2	-5	/	/
COc1ccccc1NC(=O)CN1CCN(C2c3ccccc3-c3ccccc32)CC1	-1	-20	60	-16	-3	-14	i	/
COc1cccc(Cl)c1NC(=O)N1CCN(c2ccnc3cc(Cl)ccc23)CC1	-6	-1	19	/	-3	-10	i	22
CCOc1ccc(CCNC(=O)C2CCCN(S(=O)(=O)N3CC(C)CC(C)C3)C2)cc1OCC (configuration not stated)	-11	3	-19	3	-2	-8	i	22
Cc1nnc(NC(=O)CSc2nnc(CNC(=O)c3ccccc3F)n2C(C)C)s1	/	/	/	-18	0	3	/	-7
COc1ccc(Cl)cc1NC(=O)Nc1ccc(Br)cn1	1	2	/	-11	-6	-6	i	-46

Structures listed so far with a furan ring, fused or not:
SMILES	eIF4H FP inh	PABP FP inh	CSC inhib	Yeast UUG start	MT1-MMP act inh	MT1-MMP act inh RFP	Rce1 inhib	HIV Env fusion
Cc1ccc(N2C(=O)[C@@H]3[C@H](C2=O)C2c4ccccc4C=CN2[C@@H]3C(=O)c2ccco2)cc1 (some centres not stated)	31	23	/	-4	-21	5	/	/
COc1ccc(-c2nnn(CC(=O)N(CC3CCCO3)C(C(=O)NC(C)(C)C)c3ccco3)n2)cc1OC (configuration not stated)	1	0	/	/	-2	1	i	28
O=C(O)CN1C(=O)/C(=C\c2ccc(OC(=O)c3ccco3)cc2)SC1=S	-7	-10	-6	-26	-31	21	i	19
Nc1c(C(=O)NCc2ccco2)nnn1-c1ccccc1	1	-3	0	-16	2	5	i	-70
CC(=O)c1ccc(OCCCC(=O)NCC(c2ccco2)N(C)C)cc1 (configuration not stated)	8	14	1	-6	-3	-2	i	-29
